RE007 growth inh = less growth of the S. pombe RE007 Vpr strain; S. pombe RE007 Vpr strain, BacTiter-Glo ATP luminescence, 24 h; control for the full effect not named in the record; Potency, µM (series often up to 92.2 µM), for the others: at the highest dose activity change, negative = less growth; hit rate 0.21% among 360,000; AID 651644; active = well fitted falling curve with a large enough effect; inconclusive = small, poorly fitted or top-dose-only effect; inactive = no such curve, though single readings can be large or run the other way;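 also: % is scaled to controls: 0 for no effect and ±100 for the full control effect; nearly all actives have a fitted effect of over 50% in size; the assay follows cell death caused by Vpr and the record does not say whether a fall means rescue or toxicity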
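Fission yeast strain RE007, carrying one chromosomally integrated HIV-1 vpr copy, was seeded at OD 0.01 in PMG+AL medium with 23 nL pinned compound. After 24 h at 30 °C and 99% humidity, viability was read by BacTiter-Glo luminescence.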
StopGo reporter = lowers the luciferase signal of an FMDV 2A StopGo reporter; human cells with a luciferase reporter of 2A StopGo recoding; control for the full effect not named in the record; Potency, µM (top dose mostly 57.9 µM), inactives show at the highest dose signal change, negative = less light; hit rate 1.2% among 410,000; AID 1159524; active = well fitted falling curve with a large enough effect; inconclusive = small, poorly fitted or top-dose-only effect; inactive = no such curve, though single readings can be large or run the other way; tested in HEK293T cells; also: % is scaled to controls: 0 for no effect and ±100 for the full control effect; nearly all actives have a fitted effect of over 45% in size; luciferase light after 4 h
Cruzain noTriton = inhibitors of Trypanosoma cruzi cruzain without detergent; P25779; purified cruzain, Z-FR-AMC fluorescence, no detergent; Potency, µM, inactives show max response, negative = inhibition, usual class: inhibitors; hit rate 2.3% among 200,000; AID 1476; active = well fitted curve in the direction sought with a large enough effect; inconclusive = small, poorly fitted or top-dose-only effect, or another doubt; inactive = no such curve, though single readings can be large; an effect the other way counts as inactive or inconclusive;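 also: plate controls were enzyme without inhibitor for no effect and buffer without enzyme for full effect; nearly all actives have a fitted effect of over 40% in size; top concentration of the series not given in the record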
Target sequence (P25779 123-467 limits assumed): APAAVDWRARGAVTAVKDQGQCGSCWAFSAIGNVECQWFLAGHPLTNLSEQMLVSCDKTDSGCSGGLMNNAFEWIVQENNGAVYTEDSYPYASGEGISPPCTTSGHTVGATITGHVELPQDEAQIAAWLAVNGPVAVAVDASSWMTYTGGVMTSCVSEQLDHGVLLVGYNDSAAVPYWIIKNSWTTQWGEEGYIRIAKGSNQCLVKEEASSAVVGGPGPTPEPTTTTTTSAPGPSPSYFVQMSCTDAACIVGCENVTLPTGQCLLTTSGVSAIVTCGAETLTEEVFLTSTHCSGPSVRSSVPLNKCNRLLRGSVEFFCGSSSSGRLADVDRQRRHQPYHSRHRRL
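Purified cruzain at 1.5 nM, pre-incubated 15 min with compound at room temperature in 100 mM sodium acetate pH 5.5, 5 mM DTT, 0.00005% Triton X-100. Reaction started with 2 uM Z-FR-AMC; AMC fluorescence increase over 60 s gives rate.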
Cruzain inh Det = cruzain (T. cruzi) inhibition with detergent; P25779; purified cruzain, Z-FR-AMC fluorescence, 0.01% Triton; Potency, µM, inactives show max response, negative = inhibition, most hits filed as inhibitors; hit rate 0.43% among 200,000; AID 1478; active = well fitted curve in the direction sought with a large enough effect; inconclusive = small, poorly fitted or top-dose-only effect, or another doubt; inactive = no such curve, though single readings can be large; an effect the other way counts as inactive or inconclusive;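 also: plate controls were neutral wells for no effect and buffer without enzyme for full effect; nearly all actives have a fitted effect of over 40% in size; top concentration of the series not given in the record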
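Compounds were screened in titration against cruzain (1.5 nM) with 0.01% Triton X-100 to counter colloidal aggregation. Activity was the AMC fluorescence increase over 60 s after adding 2 uM Z-FR-AMC at pH 5.5.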
NS1 inh = blocks influenza NS1 protein function. S. cerevisiae slowed by influenza A NS1, growth recovery by OD600. Potency, µM (highest dose often 46.1 µM), inactives show at the highest dose activity, positive = more growth. hit rate 0.4% among 270,000. AID 2326; also: actives are rising curves; nearly all actives have a fitted effect of over 50% in size
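Read-out: OD600 growth recovery of NS1-expressing budding yeast. Cells grown overnight at 30C in -URA glucose medium, washed, resuspended and diluted 1:100 in 2% galactose assay medium, pH 6.0. Same strain lacking NS1 served as positive control.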
LASV entry inh = inhibitors of Lassa virus binding or cell entry. Lassa virus pseudotype entry inhibition, cell reporter; control for the full effect not named in the record. Potency, µM (titrated, usually from 37.9 µM), for inactives: top-dose activity change, negative = inhibition, usual class: inhibitors. hit rate 1.2% among 300,000; active means well fitted inhibition curve with a large enough effect; inconclusive means small, poorly fitted or top-dose-only effect, or effect the other way; inactive means flat fitted curve, though single readings scatter; tested in HEK293 cells; also: % is scaled to controls: 0 for no effect and ±100 for the full control effect; nearly all actives have a fitted effect of over 50% in size; luciferase read-out
Marburg entry inh = inhibitors of Marburg virus binding or cell entry; Marburg virus pseudotyped entry inhibition, cell reporter; control for the full effect not named in the record; about a third of the inactives were read at about 46 µM; Potency, µM (titrated, usually from 37.8 µM), without a hit: at the highest dose activity change, negative = inhibition, hits mostly inhibitors; hit rate 1.8% among 300,000; active = well fitted inhibition curve with a large enough effect; inconclusive = small, poorly fitted or top-dose-only effect, or effect the other way; inactive = flat fitted curve, though single readings scatter; tested in HEK293 cells; about a fifth of its hits are not listed in these tables; also: % is scaled to controls: 0 for no effect and ±100 for the full control effect; luciferase read-out
SARS PLP yeast = inhibitors of SARS-CoV papain-like protease in yeast; Potency, µM (highest dose often 32.9 µM), without a hit: at the highest dose activity, positive = growth rescue; S. cerevisiae expressing SARS-CoV PLpro, growth rescue; control for the full effect not named in the record; hit rate 0.19% among 330,000; also: 0% is about no effect; nearly all actives have a fitted effect of over 55% in size; growth read by luminescence after 48 h
* = called active by the depositor; u = inconclusive; x = no result given; & = joins results of further samples; [ ] = another dose, or the depositor's remark. Unless noted, calls follow the shape of the dose curve; as a rule, active means well fitted rising curve with a large enough effect; inconclusive means small, poorly fitted or top-dose-only effect; inactive means no such curve, though single readings can be large or run the other way. Potency is read from the fitted curve at half-maximal effect. Rows are unselected (roughly 4.5% active in at least one column).

SMILES	RE007 growth inh	StopGo reporter	Cruzain noTriton	Cruzain inh Det	NS1 inh	LASV entry inh	Marburg entry inh	SARS PLP yeast
CC(=O)Nc1ccc(NC(=O)CN(C)S(=O)(=O)c2ccc3ccccc3c2)cc1	9%	-6%	x	x	16%	x	x	-2%
COc1cc(Cl)c(C)cc1NC(=O)CC1Oc2ccccc2NC1=O (stereo not drawn)	x	-18%	-1%	0.3%	x	x	u	x
c1ccc2cc(-c3csnn3)ccc2c1	-27%	3%	-7%	-5.5%	-8%	17%	16%[46.1 µM]	-4%
COc1ccccc1/C=N/Nc1nc(C)cc(C)n1	4%	0%	x	x	4%	5%	11%[46.1 µM]	-1%
Cc1cc(NC(=O)CSc2nnc(C3CC3)n2N)no1	-3%	-13%	-8%	1.6%	-5%	0%	1%	2%
Cc1cc(C)n(CC(=O)Nc2ccc([N+](=O)[O-])cc2)n1	-1%	-1%	x	x	3%	x	x	-1%
O=C(CCCCCN1C(=O)c2cccc([N+](=O)[O-])c2C1=O)Nc1ccccc1F	14%	5%	x	x	7%	x	x	0%
CCN(CC)CCn1c(=N)n(CC(O)COc2cccc(C)c2)c2ccccc21 (stereo not drawn)	-23%	u	x	x	x	u	u	1%
COC(=O)c1ccc2c(c1)sc(=NC(=O)CCS(=O)(=O)c1ccccc1)n2C	9%	-9%	x	x	x	1%	-2%	-7%
CC1CN(C(=O)CS(=O)(=O)Cc2ccccc2)CC(C)O1 (stereo not drawn)	5%	11%	x	x	2%	18%[46.1 µM]	16%[46.1 µM]	0%
CCOc1ccc(CC(=O)N/N=C/c2cccnc2)cc1OCC	8%	11%	x	x	7%	x	x	21%
O=C(c1ccco1)N1CCN(Cc2cc(=O)c(OCc3ccc([N+](=O)[O-])cc3)co2)CC1	-8%	-20%	x	x	x	0%	2%	-1%
COc1ccc(OC)c(NC(=O)C2CCN(S(=O)(=O)c3ccc4c(c3)OCCO4)CC2)c1	-2%	-4%	x	x	x	-9%[46.1 µM]	u	1%
CCCCCn1c(CNC(=O)c2ccccc2)nc2ccccc21	x	-7%	-9%	-0.9%	x	u	u	x
O=C(NCc1ccccc1Cl)C1CCCN1C(=O)NC1CCCCC1 (stereo not drawn)	1%	14%	x	x	5%	x	x	14%
CCOc1cnc(-c2ccc(Cl)cc2)o1	-9%	40%[activator]	-5%	-10%	11%	18%	u	-1%
CCOC(=O)/C(C#N)=C1/C=CN(C)C=N1	21%	0%	-3%	-19%	22%	-3%	14%	u
CC(COc1cccc2ccccc12)CN1CCN(C)CC1 (stereo not drawn)	-27%	-22%	8%	-0.1%	-5%	u	u	0%
O=C(CCNS(=O)(=O)c1cccc2nsnc12)NCc1ccccc1	-8%	2%&-18%	-3%	-3.0%	11%	-4%	-16%&25%[46.1 µM]	1%
CCCSCCCNC(=O)CN1C(=O)CCn2nc(-c3cn(C)c4ccccc34)cc21	x	-14%	u	-4.6%	x	0%[46.1 µM]	x	x
COC(=O)CSc1nc(N)c(C#N)c(-c2ccco2)c1C#N	2%	-22%	7%	-2.7%	-3%	7%	-7%	0%
O=[N+]([O-])c1ccc(OCCO)c(P(=O)(c2ccccc2)c2ccccc2)c1	-15%	16%	x	x	-3%	-9%	0%[46.1 µM]	1%
COc1cccc(OC)c1C(=O)Nc1ccc([N+](=O)[O-])cn1	18%	-8%	-21%	-2.5%	12%	-6%	19%	15%
COc1ccc(N2C(=O)CC(N(Cc3ccco3)C(=O)CCC(=O)O)C2=O)cc1 (stereo not drawn)	6%	-3%	x	x	5%	x	x	2%
C=C(C)c1nc(Oc2ccccc2)nc(Oc2ccccc2)n1	-18%	u	x	x	x	u	u	x
O=C(N/C(=C\c1cn(-c2ccccc2)nc1-c1ccc(Cl)cc1)C(=O)N1CCOCC1)c1ccccc1	x	x	2%	-4.1%	-5%	x	-1%	-3%
Cc1ccccc1CSc1ncc(C#N)c(N)n1	23%	0%	9%	-2.3%	-18%	8%	5%	7%
N#Cc1ccccc1Sc1ccccc1C(=O)Nc1ccc(Br)cc1	27%	16%	-4%	1.4%	-4%	13%	-1%	-8%
CCC(C)N(C(=O)CSc1ccc(NC(C)=O)cc1)C1CCS(=O)(=O)C1 (stereo not drawn)	8%	-4%	x	x	x	-6%[46.1 µM]	5%[46.1 µM]	-4%
Cc1nc2c(c3c1[nH]c1ccccc13)C(=O)CC(C)(C)C2	-2%	0%	3%	-6.4%	-20%	-20%	u	-45%
CC(C)(C)c1cc(/C=N/NC(=O)C[n+]2ccccc2)cc(C(C)(C)C)c1O	-1%	-12%	x	x	-1%	x	x	-3%
COC(=O)c1cccc(S(=O)(=O)N(Cc2ccco2)Cc2cc3cc(OC)ccc3[nH]c2=O)c1	-2%	22µM*	u	-3.1%	10%	u	-22%	0%
CCN(CCC(=O)O)c1ccccc1	3%	-5%	4%	2.4%	16%	-14%	15%	-4%
COc1ccc(CCNC(=O)c2noc(C)c2[N+](=O)[O-])cc1OC	4%	7%	x	x	4%	1%	24%	1%
O=C(CCCl)Nc1nnc(SCC(=O)NC2CCCC2)s1	3%	-11%	x	x	4%	-1%[46.1 µM]	5%[46.1 µM]	-1%
Cc1ccc(Cn2cc(S(=O)(=O)c3ccc(Cl)cc3)c(=O)c3cc4c(cc32)OCO4)cc1	x	13%	6%	-2.2%	x	7%[46.1 µM]	0%[46.1 µM]	x
CC(=O)c1cc(O)c2ccccc2c1O	-13%	-18%	x	x	-2%	x	x	-3%
CCCCCCCCC[n+]1cccc2c3ccccc3ccc21	9%	0%	-2%	-8.9%	-280%	2.8µM*	2µM*	-39%
CC1([N+](=O)[O-])COP(=O)(NC2CCCC2)OC1 (stereo not drawn)	14%	-9%	x	x	x	12%	3%	x
CSc1ccc(CN(C)C(=O)CCNS(=O)(=O)c2ccc(C)c(C)c2)cc1	-17%	-15%	x	x	x	14%	-6%	2%
O=C(c1ccc2c(=O)n3c(nc2c1)CCCCC3)N1CCN(c2cccc(Cl)c2)CC1	16%	-21%	x	x	-1%	x	x	-7%
O=S1(=O)CCC(NC(=S)NC2CCS(=O)(=O)C2)C1 (stereo not drawn)	-7%	7%	9%	-4.9%	24%	u	u	16%
COc1ccc(-n2c(=S)[nH]c3ccccc32)cc1	0%	0%	-1%	-3.0%	-8%	-1%	14%	30%
CCC(=O)Nc1c(-c2ccccc2)c(=O)c2ccccc2n1C	0%	-3%	x	x	-2%	11%	-17%	0%
CC(C)c1nnc(NC(=O)C2CCCN2S(=O)(=O)c2ccc(Cl)cc2)s1 (stereo not drawn)	-4%	3%	1%	0.1%	-6%	-14%	-13%	u
N#C/C(C(=O)N1CCOCC1)=C1/SC(Cc2ccccc2)C(=O)N1c1ccccc1 (stereo not drawn)	-2%	-25%	-2%	-0.1%	u	-6%	20%&20%	-2%
O=C(CSc1nc(=O)n2ccccc2n1)N1CCC(Cc2ccccc2)CC1	-7%	-30%	x	x	x	4%	-2%	x
Cc1ccc(-c2nc(CS(=O)(=O)CC(=O)NC3CCCCCC3)c(C)o2)cc1	2%	-9%	x	x	-1%	-14%[46.1 µM]	-11%[46.1 µM]	20%
CCOc1ccc(NC(=S)NNC(=O)c2cc(Br)ccc2Cl)cc1	9%	-1%	x	x	x	16%	-29%[46.1 µM]	-3%
COC(=O)c1ccccc1NS(=O)(=O)c1ccc(O)c(C(=O)O)c1	0%	x	-1%	3.9%	7%	-12%	3%	2%
Cc1ccc(C)c(OCc2nnc(NC(=O)c3ccco3)s2)c1	0%	-4%	u	0.0%	1%	2%	1%&1%[46.1 µM]	-2%
O=C(O)Cn1nc(N2CCN(c3ccccc3)CC2)ccc1=O	x	-12%	-7%	-2.6%	x	18%[46.1 µM]	7%[46.1 µM]	x
CCOC(=O)C(C)Oc1ccc2c(CC)cc(=O)oc2c1C (stereo not drawn)	-9%	0%	5%	-5.0%	-54%	0%	u	5%
CC(C)c1nn2c(=O)cc(COC(=O)c3cccc(NC(=O)c4cccs4)c3)nc2s1	x	4%	-6%	0.4%	x	4%[46.1 µM]	x	x
Cc1ccc(NC(=O)Cn2c(-c3ccc4c(c3)OCO4)cn(-c3ccccc3)c2=O)cc1C	x	23%	-21%	-7.8%	x	2%[46.1 µM]	11%[46.1 µM]	x
Cn1c(CCNC(=O)c2ccccc2F)nnc1SCC(=O)Nc1ccccc1F	-2%	2%	x	x	-5%	-10%[46.1 µM]	20%[46.1 µM]	-1%
COc1cccc(-c2nn(-c3ccccc3)cc2CN(C)Cc2ccno2)c1	-24%	-23%	x	x	-6%	-9%	1%[46.1 µM]	-1%
CCCCCCOC(=O)Cc1c(C)nc(-c2ccccc2)[nH]c1=O	-7%	-24%	-7%	-1.5%	4%	7%	-3%	2%
N#C/C(=C\c1c(N2CCC(C(N)=O)CC2)nc2ccccn2c1=O)C(=O)NCc1ccco1	-14%	-8%	-5%	-0.1%	4%	30%	u	-19%
CCOc1ccccc1Nc1nc(-c2cccc(Cl)c2)c2c(n1)-c1ccccc1OC2	x	-19%	13%	-15%	x	u	u	x

(list continues)
SMILES	RE007 growth inh	StopGo reporter	Cruzain noTriton	Cruzain inh Det	NS1 inh	LASV entry inh	Marburg entry inh	SARS PLP yeast
COc1cccc2c1Oc1ncccc1N(C(=O)CCC(=O)NCc1ccccc1F)C2	0%	-19%	x	x	2%	x	x	-8%
Cc1ccc(/C=N/NC(=O)c2ccccc2OCc2ccc(F)cc2)o1	-5%	-33%	0%	-9.7%	-2%	2%	-20%	-46%
CCCn1c(SCC(=O)NC(C)C23CC4CC(CC(C4)C2)C3)n[nH]c1=O (stereo not drawn)	-9%	-21%	-2%	4.4%	-1%	14%	-2%	-5%
O=C(Nc1ccccc1C(=O)NCC1CCCO1)c1ccc(Cl)cc1 (stereo not drawn)	-8%	-10%	x	x	-56%	0%	16%	2%
